MT1-MMP act inh: blockers of MT1-MMP proenzyme processing, primary screen, HT1080 RFP-PRO-GFP cells, GFP/RFP fluorescence | 360,000 compounds, 0.061% hits | GFP/RFP ratio fluorescence, overnight; percent of plate control window, DMSO zero | Matrix metalloproteinase-14 (Homo sapiens), P50281 | GFP/RFP ratio change, % at 20 µM;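 active = GFP/RFP ratio change of at least 30% with cell ATP level not reduced by more than half and red fluorescence within 50% of control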; note: strong numbers were not always called active
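Test system: HT1080 RFP-PRO-GFP cells; Benchmarks: DMSO and RFP-L50D-GFP cell wells; Timing: cells overnight before dosing, compound overnight, 37 °C, 5% CO2; Compound: one 20 µM compound dose with 1% DMSO; Read-out: GFP/RFP fluorescence ratio.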
Rce1 inhib: yeast Rce1p protease inhibitors, primary screen, biochemical, fluorescence, cell-free homogeneous | 290,000 compounds, 0.27% hits | calls only | yeast membranes, quenched prenylated peptide cleavage fluorescence;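 active = fall in fluorescence gain of 50% or more versus controls, with final raw signal at or below 3038400; inconclusive = same 50% fall but final raw signal above 3038400; inactive = fall in fluorescence gain under 50%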;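 note: plate controls were neutral control wells for no effect and wells lacking membranes for full effect; tested at 10 µM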
CSC inhib: cancer stem cell viability inhibitors, primary screen, luminescence; cancer stem cell-like cells viability; inhibition, % at 7.5 µM; 300,000 compounds, 1.1% hits;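 active = mean at 75% or more and at least half the replicates too; inconclusive = mean and replicates disagree; tested in HMLE shEcad cells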;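 note: 0% = median of negative and 100% = median of positive control wells; the first replicate is given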
Env fusion inh: inhibitors of HIV-1 Env-driven cell-cell fusion, primary screen, HeLa-JRFL effector, CEM21 target cells, luciferase; inhibition, % at 12.3 µM; 360,000 compounds, 1.1% hits;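 active = mean replicate inhibition score of at least 50 and every replicate individually at or above 50; inconclusive = only one of the two criteria met; inactive = mean below 50 and not all replicates reaching 50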;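 note: 0% = plate neutral controls and 100% = maraviroc near 300 nM; one replicate is shown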
PABP polyA inh: PABP poly(A) RNA binding inhibitors, primary screen, biochemical, fluorescence polarization, uHTS | Polyadenylate-binding protein 1 (Homo sapiens), P11940 | inhibition, % at 35 µM | 290,000 compounds, 1% hits | AID 2014, 2009;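 active = 50% or more with normal probe brightness, or confirmed in later tests; inconclusive = above 50% with abnormal brightness, or retests that disagree; inactive = below 50% or failed in later tests; about a fifth of its hits are not listed in these tables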;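 note: calls also rest on retests at 20 µM and on dose response follow-up; controls were probe without protein and protein plus probe with vehicle; some compounds called inactive have numbers as strong as hits; many hits fall short of the cut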
Target sequence (P11940 whole entry, looked up): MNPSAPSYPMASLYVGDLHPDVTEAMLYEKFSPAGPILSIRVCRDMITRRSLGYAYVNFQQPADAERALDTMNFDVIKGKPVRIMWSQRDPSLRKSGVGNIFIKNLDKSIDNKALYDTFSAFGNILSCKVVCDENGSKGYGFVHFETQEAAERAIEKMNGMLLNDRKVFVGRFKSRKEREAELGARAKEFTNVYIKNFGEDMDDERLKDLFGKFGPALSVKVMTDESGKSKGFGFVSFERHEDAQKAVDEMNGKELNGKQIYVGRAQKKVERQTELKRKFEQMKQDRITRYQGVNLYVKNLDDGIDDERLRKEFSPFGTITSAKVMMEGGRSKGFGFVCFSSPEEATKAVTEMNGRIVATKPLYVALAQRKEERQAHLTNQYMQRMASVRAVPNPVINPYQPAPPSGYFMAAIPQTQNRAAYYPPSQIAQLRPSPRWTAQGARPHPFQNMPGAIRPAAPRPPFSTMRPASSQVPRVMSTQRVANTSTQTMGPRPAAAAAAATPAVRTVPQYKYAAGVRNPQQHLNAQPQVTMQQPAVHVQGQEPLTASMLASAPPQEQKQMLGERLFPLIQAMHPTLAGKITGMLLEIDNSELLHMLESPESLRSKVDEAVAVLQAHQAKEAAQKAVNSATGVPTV
Yeast UUG start: modulators of yeast start codon fidelity, primary screen, whole organism, S. cerevisiae, single point, plate reader. 350,000 compounds, 0.13% hits. S. cerevisiae UUG-firefly luciferase reporter, luminescence/redox ratio. activity score, % at 18.7 µM. AID 602363, 2012;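 active = replicate mean at a twofold rise or more, about +100% in these data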;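 note: firefly luciferase made from a UUG start codon reports start codon fidelity; reporter light over untreated wells divided by growth signal over untreated wells; some hits fall short of that in this replicate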
eIF4H FP inh: human eIF4H binding inhibitors, primary screen, translation initiation inhibitor project, biochemical, uHTS, fluorescence polarization; Eukaryotic translation initiation factor 4H (Homo sapiens), Q15056; eIF4H fluorescence polarization binding assay; inhibition, % at 35 µM; 290,000 compounds, 0.94% hits; AID 2012, 2009;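 active = 50% or more with normal probe brightness, or confirmed in later tests; inconclusive = above 50% with abnormal brightness, or retests that disagree; inactive = below 50% or failed in later tests; about a fifth of its hits are not listed in these tables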;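 note: calls also rest on retests at 20 µM and on dose response follow-up; 0% = protein and probe with vehicle and 100% = probe without protein; strong numbers were not always called active; many hits fall short of the cut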
eIF4H FP inh retest: further read-out of eIF4H FP inh, marked with its call; inhibition, %; compound at 20 µM; confirmation average;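 mean of two retest wells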
PABP polyA inh retest: second read-out of PABP polyA inh, no call of its own (marks repeat the call); inhibition, %; compound at 20 µM; confirmation repeats;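 mean of two retest wells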
MT1-MMP act inh RFP: further read-out of MT1-MMP act inh, marked with its call; RFP signal change, %; measured here: RFP expression control read;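 0 = vehicle wells; hits needed this value within 50% of zero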
The depositor's hits bear a star; i = inactive; u = inconclusive; x = not tested or not shown.

Preview, 3 compounds:
SMILES	MT1-MMP act inh	MT1-MMP act inh RFP	Rce1 inhib	CSC inhib	Env fusion inh	PABP polyA inh	Yeast UUG start	eIF4H FP inh	others
COC(=O)c1cccc(NC(=O)CN2CCN(c3ccc(OC)cc3)CC2)c1	-6.2	-1.6	i	-1.4	-4.1	-7.9	-8.6	-4.4
CN(c1ccccc1)S(=O)(=O)c1cc(C(=O)c2nccn2C)ccc1Cl	5.6	-1.2	i	x	x	-6.1	-2.3	-13.7
COc1cccc(OC)c1C(=O)Nc1ccc(N2CCCC2)cc1	1.8	6.5	i	-5.3	-2.4	6.5	-11.0	14.5

This part in full, repeating the preview:
SMILES	MT1-MMP act inh	MT1-MMP act inh RFP	Rce1 inhib	CSC inhib	Env fusion inh	PABP polyA inh	Yeast UUG start	eIF4H FP inh	others
COC(=O)c1cccc(NC(=O)CN2CCN(c3ccc(OC)cc3)CC2)c1	-6.2	-1.6	i	-1.4	-4.1	-7.9	-8.6	-4.4
CN(c1ccccc1)S(=O)(=O)c1cc(C(=O)c2nccn2C)ccc1Cl	5.6	-1.2	i	x	x	-6.1	-2.3	-13.7
COc1cccc(OC)c1C(=O)Nc1ccc(N2CCCC2)cc1	1.8	6.5	i	-5.3	-2.4	6.5	-11.0	14.5
Cc1cc(O)cc(O)c1-c1onc(C(F)(F)F)c1-c1cscn1	-2.3	-20.5	i	2.1	x	-4.6	-9.5	-1.6
COc1cccc(NC(=S)N(CCCN2CCOCC2)C(C)c2cc3cccc(OC)c3o2)c1 (centres undefined)	3.1	3.2	i	5.3	15.0	-14.2	-23.9	-1.9
Cc1ccc(-c2nc3ccc(Cl)cn3c2Cc2ccccc2C(F)(F)F)cc1	-2.6	5.1	x	x	-89.5	x	-27.2	x
COc1ccc(NC(=O)c2cc(-c3cccs3)on2)cc1	4.6	2.0	i	24.8	47.7	9.7	8.9	-8.8
OCc1csc(=Nc2ccccc2)n1-c1ccccc1	-6.9	-1.0	i	4.4	-13.3	-7.5	-8.2	-1.1
COc1ccc(CCNc2ncnc3c2nnn3Cc2ccccc2)cc1OC	-3.1	-6.3	i	-6.5	16.4	-6.0	-10.7	-5.9
Nc1c(NCCN2CCCCC2)c2ccccc2oc1=O	3.8	5.2	i	5.3	-1.3	-8.6	x	-2.3
COc1ccccc1C(=O)NCCC(=O)NCCOc1ccccc1	2.6	2.6	i	-15.7	0.7	6.9	-2.0	-1.9
CCOC(=O)c1sc(NC(=O)CN2CCN(c3ccc(OC)cc3)CC2)nc1C	2.2	0.7	i	x	-2.5	-7.9	-4.5	-7.9
Cc1[nH]c2ccccc2c1C(O)c1ccncc1 (centres undefined)	-0.1	4.8	i	-4.4	29.6	-2.3	x	13.4
O=C(O)c1ccc(NS(=O)(=O)c2cc(Cl)ccc2Cl)cc1O	4.4	4.2	i	-7.8	x	7.5	-5.2	0.9
Cc1ccccc1N1C(=O)C2C3C=CC(CC3)C2C1=O (centres undefined)	-4.7	-3.3	i	-11.2	3.4	8.4	-25.5	18.0
CCCn1c(SCC(=O)N2CCc3ccccc3C2)nc2c1c(=O)n(C)c(=O)n2C	1.5	-0.4	i	-6.4	-18.7	3.4	-4.6	-9.0
COc1ccc(C(c2nnnn2C2CCCC2)N2CCC(C(N)=O)CC2)c(OC)c1 (centres undefined)	-3.1	2.0	i	x	x	-0.5	-3.5	-12.5
COc1cc(C)ccc1OCCOc1c(Cl)cc(Cl)cc1Cl	0.1	-0.7	i	13.2	x	-6.7	-15.9	-3.5
CCC(C)NC(=O)[C@H]1N2C(=O)c3c(ccc(OC)c3OC)C2SC1(C)C (some centres undefined)	-1.3	0.4	i	-10.5	7.8	6.6	-8.7	6.2
COc1ccc(NC(=O)c2ccccc2OCc2c(C)noc2C)cc1OC	-3.8	2.1	i	-9.6	x	2.3	-5.7	7.2
CN(CC(=O)NC(=O)NCc1ccccc1)Cc1ccc(Cl)cc1	5.0	1.7	i	-13.7	11.7	7.7	x	-7.2
Cc1cccc(Cc2nnc(CCC(=O)NCc3cnc4ccccn34)o2)c1	0.2	5.2	i	-15.7	3.5	-2.8	x	3.7
O=C(NCCSCc1ccccc1)c1ccc(C2SCC(=O)N2Cc2ccccc2)cc1 (centres undefined)	-2.2	-9.9	i	15.0	63.7*	-5.7	-6.8	-1.4
CC(=O)Nc1ccccc1C(=O)C(=O)Nc1cccc(F)c1	0.0	-1.2	i	0.9	-58.1	x	-14.1	x
COCc1cc(C)nc(SCC(=O)Nc2ccc3c(c2)OCCO3)c1C#N	4.4	1.0	i	2.5	-22.9	6.7	-17.7	-6.1
O=C(NCCN1CCOCC1)c1cc2sccc2n1Cc1ccc(Cl)cc1	-0.8	0.3	i	x	13.6	5.5	7.5	-9.6
CCCSC1C(C)=C(C)C(=O)N1Cc1ccccc1 (centres undefined)	0.7	-3.4	i	8.9	1.2	-14.9	-14.2	4.8
S=C(Nc1ccccc1)N1CCN(c2ccccc2)CC1	5.5	0.2	x	x	-27.0	x	-24.5	x
O=C(CCC(=O)Nc1ccc(F)cc1)N/N=C/c1cc([N+](=O)[O-])ccc1O	-0.8	-1.9	x	17.5	28.2	4.2	x	16.0
COc1cc(SC)ccc1C(=O)Nc1c(Cl)cncc1Cl	0.3	2.3	i	-9.8	-15.9	-3.9	x	-5.3
Cc1cc(Br)c2c(c1)C1(OCCO1)C(=O)N2	1.8	3.3	i	-15.9	-12.0	0.1	-8.8	-4.3
Cn1nnnc1SCC(=O)N1CCN(c2ccccc2)CC1	-0.2	0.3	i	0.3	x	2.6	-2.0	-1.8
O=[N+]([O-])c1ccccc1S(=O)(=O)N1CCCCC1	2.3	2.0	i	-9.0	57.8	-3.3	-22.1	2.5
Cc1ccc(SCC(=O)Nc2cccc(C(=O)NC(C)(C)C)c2)cc1	2.4	2.5	i	-12.4	x	-2.0	-4.5	-6.0
COc1ccc(CNC(=O)CCSc2nc(-c3ccc4c(c3)OCO4)cc(C(F)(F)F)n2)cc1	2.6	-8.4	i	-6.8	27.7	-1.6	-3.5	-1.3
Cc1c(C(=O)N2C[C@@H](C)O[C@@H](C)C2)oc2c(F)cccc12	0.2	-0.1	i	-6.7	-26.8	-6.8	-14.9	-15.5
Cc1ccc(-c2c(C)n([O-])c3c([n+]2=O)CCC3)o1	6.7	8.8	i	x	x	1.5	-8.3	1.2
N#Cc1ccccc1OCC(=O)OCC(=O)c1ccc2c(c1)NC(=O)CO2	1.0	1.0	i	-7.1	-19.0	16.2	-6.8	3.1
O=[N+]([O-])c1ccccc1/C=C/CN1CCCC(CO)C1 (centres undefined)	-2.6	6.4	i	-5.4	-7.9	2.0	-17.5	-4.3
O=C(NCCCN1CCN(c2ccccc2F)CC1)C1CC(=O)N(C2CCCC2)C1 (centres undefined)	3.9	6.0	i	-2.0	-3.0	-1.4	-8.8	-8.0
Cc1ccc(NC(=O)CN(c2ccccc2)S(=O)(=O)N(C)C)cc1	1.5	1.5	i	-10.5	-12.0	3.1	x	-0.5
CC(Oc1ccc(Cl)cc1Cl)C(=O)Nc1ccc(O)cc1 (centres undefined)	0.9	2.4	i	-11.2	21.8	58.6	x	2.6*	eIF4H FP inh retest=83.1*;PABP polyA inh retest=45.8
Cc1n[nH]c(=O)c2c(NC(=O)CSc3ncccn3)oc(C)c12	-0.2	0.1	i	6.6	5.6	x	x	x
C=CCOC(=O)C1=C[C@H](C2CC2)[C@@H](CCCO)[C@H](OCC)O1	2.8	2.4	i	-23.1	17.3	-3.2	0.8	3.9
C=C[C@H]1C(C(=O)OCC)=CC[C@@H](c2ccccc2)N1S(=O)(=O)c1ccc(C)cc1	-11.2	-13.8	x	x	3.2	x	-5.6	x
CCN1C(=NCC(C)C)N[C@@H](c2cccc(F)c2)C(C(=O)OC)=C1C	-1.1	1.9	i	-2.8	-27.7	x	-10.0	x
CCN(CC)S(=O)(=O)c1ccc(Cl)c(NC(=O)COC(=O)/C=C/c2cc(OC)c(OC)c(OC)c2)c1	4.8	1.1	i	-3.6	1.6	-7.6	1.9	-1.1
Cc1ccc(S(=O)(=O)N2CCCCC2)cc1NC(=O)c1c(-c2ccccc2)noc1C	0.4	-2.4	x	x	-6.1	x	-3.9	x
COc1ccc(N2C(=O)CC(Cc3ccc(Br)cc3)C2=O)cc1 (centres undefined)	7.2	-9.2	i	-2.6	15.4	10.8	-10.6	5.3
COc1ccc(/C=N/NC(=O)CCn2c3ccccc3c3ccccc32)cc1O	5.4	-10.6	i	57.0	x	9.7	-14.9	-7.3
CCCn1c(=S)[nH]c2cc(C(=O)NCC3CCCO3)ccc2c1=O (centres undefined)	1.1	-12.0	i	13.9	3.8	14.6	-14.3	2.4
CCN1C(=O)[C@H]2[C@@H](c3ccc(-c4ccc(F)cc4)cc3)N[C@@](Cc3ccccc3)(C(=O)OC)[C@H]2C1=O	-6.6	-15.2	i	18.6	-9.6	x	-3.5	x
Cn1nc(N)nc1N1CCN(c2ccc(F)cc2)CC1	0.9	-1.0	i	-10.0	0.5	-1.5	x	7.1
CCCN1C[C@@H](C)[C@@H](OC)CN(C)C(=O)c2ccc(NC(=O)c3cccc(F)c3)cc2OC[C@H]1C	1.0	3.4	x	x	u	x	2.7	x
CC1(C)CC(NC(=O)c2ccccc2C(=O)NC2CC(C)(C)NC(C)(C)C2)CC(C)(C)N1	0.6	-1.6	x	-7.5	-7.0	6.9	-20.8	3.9
COc1ccc(OCCN2CCC(C(=O)NC(c3ccccn3)c3ccccc3OC)CC2)cc1 (centres undefined)	3.5	-0.3	x	x	9.3	x	-1.3	x
CC(c1ccco1)N(C(=O)CSc1ccc(Br)cc1)c1ccccn1 (centres undefined)	-10.4	-4.6	i	0.6	-49.0	6.1	-1.1	-4.6
CCCCN(CCCC)CCCN1CC(=O)N2[C@@H](Cc3c([nH]c4ccccc34)C2(C)C)C1=O	1.1	-1.9	i	-2.2	16.5	-7.5	-8.5	-4.1
Cc1ccc(-c2cc(C(=O)N/N=C/c3ccccc3O)n[nH]2)o1	7.5	2.2	x	78.7*	-12.3	7.2	-9.3	7.9
CC1Cc2nc(SCC(=O)N3CCOCC3)n(C)c(=O)c2S1 (centres undefined)	-2.3	1.8	i	-11.9	-0.2	-9.1	-1.3	-5.4

(list continues)
SMILES	MT1-MMP act inh	MT1-MMP act inh RFP	Rce1 inhib	CSC inhib	Env fusion inh	PABP polyA inh	Yeast UUG start	eIF4H FP inh	others
Cc1ccsc1/C=N/NC(=O)Cc1cccn1C	4.0	3.5	i	-13.0	19.3	2.9	x	12.9
NC(=O)CC(NC(=O)c1ccc(Br)cc1)c1ccc(N2CCC(Br)CC2)c([N+](=O)[O-])c1 (centres undefined)	10.6	-13.5	i	23.5	14.8	4.0	-25.9	-3.1
CC(=O)C(Sc1nc(NC(C)(C)C)nc(N(C)C)n1)C(C)=O	6.2	-8.0	i	34.2	-18.3	-1.0	-7.9	-13.0
COc1cccc(C(=O)N2CCN(Cc3ccco3)CC2)c1OC	2.6	4.1	i	5.2	x	1.1	-1.9	16.6

Screening data from PubChem.
